HTT prom inh – inhibits huntingtin promoter activity | HEK293 HTT promoter firefly luciferase reporter (activity 0% = vehicle and -100% = no light), 24 h | Potency, µM (titrated, usually from 57.5 µM), inactives show top-dose activity change, negative = inhibition, most hits filed as inhibitors | 0.93% of 48,000 active | AID 1508623; active means well fitted inhibition curve with a large enough effect; inconclusive means small, poorly fitted or top-dose-only effect; inactive means no such curve, though single readings can be large or run the other way; further: nearly all actives have a fitted effect of over 50% in size
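Luminescence was read after Dual-Glo reagent and a 10 min room-temperature incubation. Values were normalized to vehicle (0% activity) and zero RLU (-100% activity). Reporter HEK293 cells had been exposed to compounds (up to 57.5 uM final) for 24 h.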
PMP22 txn – PMP22 gene transcription modulation; 2% of 43,000 active; S16 Pmp22-F2sN Schwann cells (luciferase reporters placed in the Pmp22 gene), FLuc/NLuc coincidence luminescence, 24 h; AID 1508649; Potency, µM (series often up to 57.5 µM), without a hit: at the top dose activity change, negative = inhibition, most hits filed as inhibitors; active = clear falling dose curves in both reporters; inconclusive = both reporters move, but less clearly or upward; inactive = either reporter flat; the % is the NLuc reporter signal; further: on the % scale 0 is the no-effect control and ±100 the full control effect; some results filed as inactive show a strong effect at the top dose
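Reporter cells (S16 Pmp22-F2sN, 500–1,000 per well) exposed to compounds for 24 h, 37C, 5% CO2; lysis with FLuc read after 10 min, then Stop&Glo and NLuc read after 10 min.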
* = called active by the depositor; ? = inconclusive; . = not tested or not shown; [ ] = another dose, or the depositor's remark. Potency means the concentration at half of the fitted maximal effect.

SMILES | HTT prom inh | PMP22 txn
Cc1ccc2[nH]c3c(=O)n(CC(=O)N(CCN(C)C)Cc4ccccc4)ncc3c2c1 | -5.3% | ?
COc1ccccc1N1CCN(C(=O)CCS(=O)(=O)c2ccc3c(c2)oc(=O)n3C)CC1 | -13.9% | -0.1%
COc1ccc(-c2cn3nc(N4CCCC(C(=O)Nc5ccc(C)c(C)c5)C4)sc3n2)cc1 (stereo not given) | -4.3% | ?
COCCCNc1ncnc2c1cnn2-c1ccc(F)cc1 | 23.6% | ?
Cc1ccc(NC(=O)C2CCCN(S(=O)(=O)c3cccc4cccnc34)C2)c(C)c1 (stereo not given) | -20.8% | 0.6%
COc1cccc(NC(=O)c2sc3nc(C)c(C(=O)Nc4ccc(C)cc4C)c(-c4ccc(Br)cc4)c3c2N)c1 | -32.9% | -9.8%
CCOc1ccc(CNC(=O)CS(=O)(=O)c2cccc3nsnc23)cc1 | -12.9% | -3.8%
CC1=Nc2cc(C(=O)NC(C)C)ccc2Sc2ccc(C)cc21 | ? | ?
Cc1ccc(N(Cc2cccs2)C(=O)c2ccc(OC(C)C)cc2)cc1 | -22.1% | -12.8%
CC1(C)N=C(c2ccc(F)cc2)C(=O)N1CC(=O)Nc1ccccc1Cl | -17.6% | ?
CCCCc1nn2c(=O)cc(COC(=O)c3ccccc3NC(=O)C3CCCCC3)nc2s1 | -18.6% | -15.5%
COc1ccc(-c2cc(C(=O)Oc3ccc(C)cc3)c3ccccc3n2)cc1 | 22.0% | -2.0%
Cc1cccc(CSCCNC(=O)CN(c2ccccc2)S(=O)(=O)N(C)C)c1 | -26.2% | -21.4%
Cc1cc(Br)cc(C)c1NC(=O)c1cnc2ccccn2c1=O | 35.5%[activator] | -70.8%
CCCCOc1ccc(NC(=O)c2cc3c(n(-c4ccc(Cl)cc4)c2=O)CCCC3=O)cc1 | 1.6% | -11.2%
Cc1ccc(CCNC(=O)c2ccc(CS(=O)(=O)c3ccc(Br)cc3)o2)cc1 | -12.2% | -30.7%
CCOC(=O)c1c(C)[nH]c(C)c1S(=O)(=O)N1CCC(C(=O)NCc2ccccc2)CC1 | -8.4% | 27.8%
CC(=O)Oc1cc2c(s1)CCN(C(C(=O)C1CC1)c1ccccc1F)C2 (stereo not given) | ? | .
Cc1nc2nc(SCC(=O)NCc3ccccc3Cl)nn2c(C)c1Cc1ccccc1 | -28.0% | 35.2%
CC(=O)N1CCN(C(=O)C(=O)Nc2c3c(nn2-c2ccc(Cl)cc2)CSC3)CC1 | -12.5% | 6.7%
CCOC(=O)c1cc(-c2ccc(C)cc2)n(CCC(=O)NCCc2ccc(C)cc2)c1C | -22.9% | -3.4%
Cc1ccn2c(Nc3ccc4c(c3)OCO4)c(-c3ccc(O)cc3)nc2c1 | 4.3% | -9.6%
CCOC(=O)C1CCCN(S(=O)(=O)c2cc(Br)cc3c2N(C(=O)CC)CC3)C1 (stereo not given) | 9.4% | -11.3%
COc1ccc(NC(=O)Cn2cc(S(=O)(=O)c3ccc(C)cc3)c(=O)c3ccccc32)cc1OC | -11.0% | -4.1%
CCOc1cc(CNC(=O)c2ccc3nc(C(C)C)oc3c2)cc(OCC)c1OCC | -20.8% | ?
SMILES | HTT prom inh | PMP22 txn
Cc1ccc(N2CCN(c3c(CN4CCCC4)c(=O)oc4ccccc34)CC2)c(C)c1 | 5.7% | -5.8%
CN(C)c1ccc(CNC(=O)C(Cc2ccccc2)NS(=O)(=O)c2ccc3c(c2)oc(=O)n3C)cc1 (stereo not given) | -15.1% | -7.0%
CCN(C(=O)CSc1nc2ccccc2n1CC(=O)Nc1ccc(F)cc1F)c1ccccc1 | -34.3% | 0.9%
COC(=O)c1sccc1S(=O)(=O)N1CCN(c2ccc(Cl)cc2)CC1 | -20.3% | 2.2%
COc1cc(C[C@@H](CO)[C@H](CO)Cc2ccc(O)c(OC)c2)ccc1O | 355.3%[activator] | .
COc1ccc(CCNC(=O)c2cccc(Nc3nc4ccccc4nc3-n3nc(C)cc3C)c2)cc1OC | -11.4% | -26.3%
CC(=O)C1=C(c2ccc(C)cc2)N(C(C)=O)n2c(nnc2C2CCCCC2)S1 | -10.5% | ?
CC(C)(C)c1ccc(-c2nc3cc(NC(=O)c4cc5ccccc5o4)ccc3o2)cc1 | -33.5% | -58.0%
COc1ccc(N2Cc3cccc(C(=O)Nc4ccc(C)cc4)c3C2=O)cc1 | -23.6% | ?
Cc1ccc(-n2c(=O)c3ccc(C(=O)NCc4ccco4)cc3n(Cc3ccc(Cl)cc3)c2=O)cc1 | -18.1% | ?
Cc1nnc(N2CCCC(C(=O)NCc3ccccc3)C2)c2nn(-c3ccccc3)c(C)c12 (stereo not given) | -9.9% | -4.6%
CCC1CN(C(=O)Nc2cc(Cl)ccc2C(=O)OC)c2ccccc2S1 (stereo not given) | -11.2% | -14.2%
CC(C)OCCCn1c(SCc2cccc(Br)c2)nc2c(sc3ccccc32)c1=O | -11.4% | -19.2%
Cc1ccccc1CN1CCCN(CC(=O)Nc2c(C)cccc2C)S1(=O)=O | 0.0% | -12.2%
O=C(CSc1oc(-c2ccco2)nc1S(=O)(=O)c1ccc(Cl)cc1)c1ccc(Cl)cc1 | ? | -23.9%
CCC1Sc2ccccc2N(CC(=O)NCc2ccc(C)cc2)C1=O (stereo not given) | 15.2% | -5.3%
CCCCn1cnc2cc(NCc3ccc(OCC)cc3)ccc21 | 7.4% | -137.3%
Fc1ccc(C2=NC(c3cccc(C(F)(F)F)c3)=Nc3ccccc3N2)cc1 | ? | -14.0%
COc1cccc(C(=O)CC2(O)C(=O)N(Cc3ccccc3)c3ccccc32)c1 (stereo not given) | -19.6% | ?
Cc1cc(N2CCN(c3cccc(C)c3C)CC2)n2cnnc2n1 | -6.8% | ?
c1csc(C2=NC(c3ccncc3)=Nc3ccccc3N2)c1 | -5.4% | 36.2%
O=C(Nc1ccc(N2CCN(CCOc3ccc(Cl)cc3)CC2)c(C(=O)O)c1)c1ccc(F)cc1 | -31.3% | ?
COc1ccc2c(c1)c(=O)c(S(=O)(=O)c1ccc(C)cc1)cn2Cc1ccccc1C | ? | ?
Cc1cc(=O)n(CC(=O)N2CCCc3ccccc32)c2c1c(C)nn2-c1cccc(F)c1 | -11.7% | -31.5%
CCNC(=O)C1CCCN(c2nnc(C)c3c(C)n(-c4ccc(C)cc4)nc23)C1 (stereo not given) | 0.4% | -29.5%
SMILES | HTT prom inh | PMP22 txn
COc1ccc(-n2c(SCc3nc(-c4ccc(Cl)cc4)no3)nnc2-c2ccncc2)cc1 | -5.3% | ?
COC(=O)c1c(NC(=O)c2cc(OC)c(OC)c(OC)c2Br)sc2c1CCC(C)C2 (stereo not given) | 22.3% | -0.1%
O=c1c2c3c(sc2n(Cc2ccccc2F)c(=O)n1-c1ccc(Cl)cc1)CCCC3 | -4.8% | 10µM*
Cc1cc2c(cc1S(=O)(=O)CCC(=O)NCCc1ccccc1)OCC(=O)N2 | -1.1% | 0.7%
CCOc1ccc(-c2cccc(NS(=O)(=O)c3ccccc3C(F)(F)F)c2)nn1 | ? | -0.6%
Cc1ccc(CCNC(=O)CCCn2c(=O)c3ccccc3n(Cc3ccccc3C#N)c2=O)cc1 | -15.3% | ?
CCc1ccc(NC(=O)Cn2c(=O)oc3cc(S(=O)(=O)N4CCCCCC4)ccc32)cc1 | ? | ?
COc1ccc(C(=O)N(Cc2cc(OC)c(OC)c(OC)c2)CC2CCCO2)cc1 (stereo not given) | -1.8% | -14.9%
Cc1ccc(OCC(=O)NCC(c2ccc(Cl)cc2)N2CCOCC2)cc1C (stereo not given) | -28.3% | -14.7%
CCc1c(-c2ccccc2)nc2ccccc2c1C(=O)NCCc1ccccc1 | 1.4% | -2.3%
COC(=O)c1ccccc1NC(=O)c1nn(C)c2c1COc1ccccc1-2 | -13.1% | 3.4%
Cc1ccc(-n2nc(CO)c(C(=O)NCc3cccs3)n2)cc1C | -15.2% | -18.0%
COc1ccc(NC(=O)CC2C(=O)N(c3ccc(OC)cc3)C(=O)N2CCC2=CCCCC2)cc1 (stereo not given) | ? | -14.1%
Cc1cc(Cl)ccc1NC(=O)c1cc2ccccn2n1 | 1.2% | -16.7%
CC(=O)N1CCC2(CC1)OC(=O)C(C)=C2C(=O)NCc1ccccc1Cl | 7.8% | -6.8%
O=C(NCC(c1cccs1)S(=O)(=O)c1ccccc1)c1ccc(C(F)(F)F)cc1 (stereo not given) | ? | ?
Cc1ccc(C)c(Cn2c(=O)n(-c3ccc(F)cc3)c(=O)c3sc4ccccc4c32)c1 | -11.0% | -15.4%
COC(=O)c1cc2sc(C)cc2n1CC(=O)Nc1ccc(C)cc1Cl | ? | -5.3%
COc1ccc(NC(=O)[C@@H](c2ccccc2)N2Cc3ccccc3C2=O)cc1OC | -17.1% | 9.5%
Cc1cccc(NC(=O)N2CCC(N3CCN(Cc4ccccc4)C(=O)C3=O)CC2)c1C | -2.4% | -13.6%
CCc1ccc(C(=O)c2cn(CC(=O)Nc3ccc4c(c3)OCO4)c3ccc(F)cc3c2=O)cc1 | ? | -5.6%
COc1cccc(CNC(=O)Cn2ncc3c4ccccc4n(Cc4ccccc4)c3c2=O)c1 | 3.1% | ?
Cc1ccccc1N1CC(c2nc3ccccc3n2CCC2CCCCC2)CC1=O (stereo not given) | ? | ?
CN=C(NC#N)NCCSCc1csc(N=C(N)N)n1 | 3.9% | .
CC(c1ccccc1)n1cc2c(c1-c1ccccc1Br)c(=O)n(C)c(=O)n2C (stereo not given) | ? | -6.8%
SMILES | HTT prom inh | PMP22 txn
COc1ccc(Br)cc1CNC(=O)CCCn1c(=O)c2cccn2c2ccccc21 | -27.5% | ?
CCOC(=O)c1cccc(NC(=O)C2CCN(S(=O)(=O)c3ccc4c(c3)oc(=O)n4C)CC2)c1 | -21.1% | -38.6%
CCOC(=O)c1noc2ncnc(N3CCN(c4cccc(Cl)c4)CC3)c12 | -26.5% | ?
COc1cccc(C(=O)NC(=O)Nc2ccc(-c3cc(C(F)(F)F)nn3-c3ccccc3)cc2)c1 | ? | -4.8%
Cc1nn(C)c2c1c(C(F)(F)F)cc(=O)n2Cc1cccc(Br)c1 | 0.0% | 4.4%
CCOc1ccc(-c2nc(-c3ccccc3)c(-c3ccccc3)[nH]2)cc1OCC | -27.5% | ?
O=C(NCCc1ccc(F)cc1)C(=O)NCC(c1ccco1)S(=O)(=O)c1ccccc1 (stereo not given) | ? | -13.7%
COc1cc(C2NC(=O)N(C)C3=C2C(=O)N(c2cccc(Cl)c2)C3)ccc1O (stereo not given) | -0.6% | 4.3%
CC(C)COc1ccc(Nc2ncnc3ccc(Br)cc23)cc1 | -3.8% | ?
COc1cccc(NC(=O)Nc2ccc3snnc3c2)c1 | -7.8% | ?
Cc1ccc(C)c(OCCSc2nc3ccccc3n2CC(=O)N2CCOCC2)c1 | -12.0% | -24.6%
CC(C)CCNC(=O)C1CCC(Cn2c(=O)c3sccc3n(CC(=O)NC(C)C)c2=O)CC1 (stereo not given) | -8.3% | -13.0%
Cc1ccc(C(=O)Nc2nnc(SCc3cc(=O)n4ccc(C)cc4n3)s2)cc1 | 22.4% | 1.5%
COc1ccc(C(=O)c2oc3ccccc3c2NC(=O)c2ccc(F)cc2)cc1 | 1.7% | -19.5%
CCOC(=O)c1c(NC(=O)c2ccc(S(=O)(=O)N(CCOC)CCOC)cc2)sc2c1CC(C)(C)NC2(C)C | -7.9% | -31.5%
CCCCN(CC)CCCNC(=O)Cn1nc(CC)n2c(cc3sccc32)c1=O | 4.6% | -6.7%
CCOC(=O)c1ccc(OC(=O)c2cn(-c3ccc(C)cc3)c(=O)c3ccccc23)cc1 | -10.2% | 0.2%
COc1ccc(CNc2oc(-c3ccc(COc4ccccc4C)o3)nc2C#N)cc1 | 20µM* | ?
CC(C)c1ccc(NC(=O)Cn2cc(S(=O)(=O)N3CCN(c4ccccc4F)CC3)c3ccccc3c2=O)cc1 | -4.1% | -9.8%
COc1ccc(Cl)cc1NC(=O)c1cc(S(=O)(=O)N2CCc3ccccc32)cn1C | -11.4% | -34.0%
O=C(Nc1ccc(Br)cc1)C1CCN(c2ncccn2)CC1 | -7.1% | 19.7%
COc1ccc(C)cc1N(C)C(=O)c1c2c(nc3ccccc13)C(=O)N(C1CCCCC1)C2 | -27.5% | ?
COc1ccc(C(=O)NCC(c2cccnc2)N2CCc3ccccc32)cc1 (stereo not given) | ? | ?

Part of the list above, set out differently:
SMILES: CC(C)COc1ccc(Nc2ncnc3ccc(Br)cc23)cc1
  HTT prom inh: -3.8%	PMP22 txn: ?

SMILES: Cc1ccc(C)c(OCCSc2nc3ccccc3n2CC(=O)N2CCOCC2)c1
  HTT prom inh: -12.0%	PMP22 txn: -24.6%

SMILES: CCCCN(CC)CCCNC(=O)Cn1nc(CC)n2c(cc3sccc32)c1=O
  HTT prom inh: 4.6%	PMP22 txn: -6.7%

SMILES: COc1ccc(Br)cc1CNC(=O)CCCn1c(=O)c2cccn2c2ccccc21
  HTT prom inh: -27.5%	PMP22 txn: ?

Complete entries as entered above. Values in the order: HTT prom inh	PMP22 txn
CCOC(=O)c1c(NC(=O)c2ccc(S(=O)(=O)N(CCOC)CCOC)cc2)sc2c1CC(C)(C)NC2(C)C is entered as -7.9%	-31.5%
O=C(NCCc1ccc(F)cc1)C(=O)NCC(c1ccco1)S(=O)(=O)c1ccccc1 (stereo not given) is entered as ?	-13.7%

Screening results from PubChem.
